# Vaccinia mCherry: vaccinia inhibition (mCherry reporter) | Vaccinia virus mCherry reporter infection, fluorescence; about a quarter of the inactives have no number | Potency, µM (highest dose often 36.5 µM), for the others: top-dose activity change, negative = inhibition, actives largely listed as inhibitors | 310,000 compounds, 0.63% hits; active = well fitted inhibition curve with a large enough effect; inconclusive = small, poorly fitted or top-dose-only effect; inactive = no such curve, though single readings can be large or run the other way; tested in A549 cells; also: nearly all actives have a fitted effect of over 35% in size; inactives centre near -10
# VACV Venus inh: inhibitors of vaccinia virus (Venus reporter). Vaccinia virus Venus reporter expression, fluorescence. Potency, µM (doses to about 36.5 µM), without a hit: at the top dose activity change, negative = inhibition, usual class: inhibitors. 330,000 compounds, 0.46% hits; active means well fitted inhibition curve with a large enough effect; inconclusive means small, poorly fitted or top-dose-only effect; inactive means no such curve, though single readings can be large or run the other way; tested in A549 cells; also: nearly all actives have a fitted effect of over 30% in size; inactives centre near -10
# Active calls of the source: *; i = inactive; ? = inconclusive; · = not tested or not shown; & = joins results of further samples; [ ] = another dose, or the depositor's remark. % is scaled to controls: 0 for no effect and ±100 for the full control effect; potency is read from the fitted curve at half-maximal effect.
(1) Oc1c(Cl)cc(Cl)cc1C1=NNC(c2ccc(Cl)cc2)C1 (stereo not drawn)
(2) Cc1[nH]nc2c1C(C(C)C)C(C#N)=C(N)O2 (stereo not drawn)
(3) COCCn1c(C)cc(C(=O)CSc2nnnn2C2CCCC2)c1C
(4) O=C(Nc1ccccc1)N1N=C(c2ccc(F)cc2)CC1c1ccc(F)cc1 (stereo not drawn)
(5) CS(=O)(=O)c1ccc(Cl)c(C(=O)NC2CCSc3ccccc32)c1 (stereo not drawn)
(6) COc1ccc(C2(O)CC3CCC(C2)N3c2nc(C)cc(C)c2C#N)cc1 (stereo not drawn)
(7) CC(=O)Nc1ccc(/C=C2/Sc3ccccc3C2=O)cc1
(8) CCNS(=O)(=O)c1ccc(C)c(-n2cnnn2)c1C
(9) Cc1ccc(NC(=O)c2cc(S(=O)(=O)N3CCOCC3)cs2)cc1
(10) O=C(CSc1nc(=O)[nH]c2c1CCC2)NCc1ccc(Cl)cc1
Compound | 1 | 2 | 3 | 4 | 5 | 6 | 7 | 8 | 9 | 10
Vaccinia mCherry | -14.0% | · | i | -22.1% | -25.0% | ? | -22.6% | -1.9% | -24.2% | -5.9%[7.34 µM]
VACV Venus inh | 0.4% | -16.1% | -6.5% | -15.8% | 1.9% | -27.6% | -2.1% | -8.8% | -17.3% | -6.0%[7.34 µM]

(11) COCCNC(=S)Nc1ccc2nc(N3CCCC3)cc(C)c2c1
(12) CCOc1ccc2ncc3c(-c4ccccc4)nn(CC(=O)Nc4cccc(F)c4)c3c2c1
(13) Cc1ccc(S(=O)(=O)N(CC(=O)Nc2cccnc2)c2ccccc2C)cc1
(14) CCCCNCc1ccc(OCc2ccc(Cl)nc2)c(OC)c1
(15) CCc1cccc(NC(=O)c2c(C)oc3ncnc(N4CCCCC4)c23)c1
(16) CCOC(=O)CC[C@H](NC(=O)Cn1cnc2c(SC)nc(N)nc21)C(=O)OCC
(17) COc1ccccc1N1CCN(/N=C/C=C\c2ccccc2[N+](=O)[O-])CC1
(18) COc1ccc(-c2cc(C(F)(F)F)nc(NCc3cccnc3)n2)cc1
(19) Cn1c(=O)c2cc(NC(=O)Nc3ccccc3)ccc2n1Cc1ccccc1
(20) COc1ccc(NC(=O)c2c(-c3ccc(C)cc3)nnc3ccccc23)cc1Cl
Compound | 11 | 12 | 13 | 14 | 15 | 16 | 17 | 18 | 19 | 20
Vaccinia mCherry | -8.0% | -1.0% | -10.3% | -10.6%[7.34 µM] | -20.7% | -13.7% | ? | -22.4% | i | -3.5%
VACV Venus inh | -17.8% | 5.0% | -12.7% | 2.1%[7.34 µM] | -5.0% | 0.2% | -21.8% | -15.0% | -10.1% | -5.0%

(21) COCCN(CC(=O)Nc1cccc(C)c1C)C(=O)Cn1cnc2ccccc2c1=O
(22) COc1ccccc1C(=O)N(c1ccc(C)cc1)S(=O)(=O)c1ccc(Cl)cc1
(23) Cc1ccc(-c2nonc2NC(=O)c2ccc(F)cc2)cc1C
(24) CCOC(=O)c1c(NC(=O)CSc2nc(C)cc(C)c2C#N)sc(C(C)=O)c1C
(25) Cc1noc(NS(=O)(=O)c2ccc(N/C=C/C(=O)c3cccnc3)cc2)c1C
(26) CC1NC(=O)N(C)[C@@H]2NC(=O)N(C)C(c3ccc([N+](=O)[O-])cc3)[C@@H]12 (stereo partly drawn)
(27) CC(C)OC(=O)Nc1ccc(N=C(N)N[N+](=O)[O-])cc1
(28) O=C1NC(c2ccco2)Nc2ccccc21 (stereo not drawn)
(29) Cc1ccc(-c2cc(C(F)(F)F)n3ncc(C(=O)N4CCN(C)CC4)c3n2)cc1
(30) CCCCCCCCCC(=O)N1c2ccccc2NC(=O)C1CC(=O)Nc1ccc(C(=O)O)cc1 (stereo not drawn)
Compound | 21 | 22 | 23 | 24 | 25 | 26 | 27 | 28 | 29 | 30
Vaccinia mCherry | -12.2% | ? | -5.5% | -6.8% | -0.9% | i | 1.0% | · | · | i
VACV Venus inh | -10.9% | -21.6% | -9.7% | -2.8% | -4.6% | -9.1% | -6.2% | -15.5% | -9.4% | -0.1%

# The final 3 compounds of the section above open the next one.
(28) O=C1NC(c2ccco2)Nc2ccccc21 (stereo not drawn)
(29) Cc1ccc(-c2cc(C(F)(F)F)n3ncc(C(=O)N4CCN(C)CC4)c3n2)cc1
(30) CCCCCCCCCC(=O)N1c2ccccc2NC(=O)C1CC(=O)Nc1ccc(C(=O)O)cc1 (stereo not drawn)
(31) CC(N)Cc1c[nH]c2ccc(OCc3cccs3)cc12 (stereo not drawn)
(32) CC1(C(=O)Nc2ccc3c(c2)OCCO3)CN(S(C)(=O)=O)CC(=O)N1Cc1cccs1 (stereo not drawn)
(33) COc1ccc(C(=O)N2CCC(c3nc4ccccc4o3)CC2)cc1
(34) OC(c1ccccc1)c1nc(-c2cccc(F)c2)cs1 (stereo not drawn)
(35) Cc1nnc(SCC(=O)NCc2ccco2)n1Cc1ccccc1
(36) Cc1cccc(CN2C(=O)NC(c3ccccc3)(c3ccccc3)C2=O)c1
(37) CC1=C(C(=O)N(C)C)CC(CC(=O)NCCCN(C)C)C(=O)N1CCCN1CCCC1=O (stereo not drawn)
(38) CCCNC(=O)C1(C)CCN(C(=O)c2c(Cl)cccc2Cl)C1 (stereo not drawn)
(39) C/C=C/c1ccc(OCCOCCOc2cccc3cccnc23)c(OC)c1
(40) COc1ccc(CNC(=O)CN(C)S(=O)(=O)c2ccc3c(c2)n(C)c(=O)c(=O)n3C)cc1
Compound | 28 | 29 | 30 | 31 | 32 | 33 | 34 | 35 | 36 | 37 | 38 | 39 | 40
Vaccinia mCherry | · | · | i | -28.3%&-6.8% | -17.8% | -7.7% | -6.9% | · | ? | 12.1% | 13.1% | -19.3% | i
VACV Venus inh | -15.5% | -9.4% | -0.1% | -11.6%&-14.3% | -3.5% | -22.8% | -18.1% | -11.0% | -22.7% | -3.9% | 3.0% | -10.4% | -13.5%

(41) COc1ccc(-n2c(COc3cccc(C)c3)n[nH]c2=S)cc1
(42) O=C(N/N=C/c1ccc(Cl)c([N+](=O)[O-])c1)c1cnccn1
(43) C/C(CC(=O)Nc1ccc(F)cc1)=N\NC(=O)c1ccccn1
(44) O=C(Cn1nnc(-c2ccc3c(c2)OCO3)n1)NCc1ccco1
(45) CCOC(=O)c1c(C)nc2c(c1-c1ccc(Cl)cc1)C(=O)CC(C)(C)C2
(46) S=C(NCCc1ccccc1)N1CCc2ccccc2C1
(47) CC(C)CN(C(=O)COC(=O)c1ccc2c(c1)OCCO2)c1c(N)n(Cc2ccccc2)c(=O)[nH]c1=O
(48) O=C(O)c1ccc(N2C(=O)c3ccc(C(=O)c4cccc([N+](=O)[O-])c4)cc3C2=O)cc1
(49) O=C(COc1ccccc1)Nc1nnc2n1CCS2
(50) COc1cc2c(cc1OC)C(C(N)=O)NCC2 (stereo not drawn)
Compound | 41 | 42 | 43 | 44 | 45 | 46 | 47 | 48 | 49 | 50
Vaccinia mCherry | -14.1% | -7.7% | i | 2.1% | -17.0% | -25.1% | -19.0% | -11.2% | 4.2%[7.34 µM] | i
VACV Venus inh | 0.6% | -4.9% | -10.2% | 0.4% | -11.6% | 0.7% | -12.6% | -10.7% | -0.6%[7.34 µM] | -5.1%

(51) NC(=O)Nc1cc(Cl)ccc1Cl
(52) O=C(NCc1cccc(CNC(=O)C(=O)NCC2CCCO2)c1)C(=O)NCC1CCCO1 (stereo not drawn)
(53) COc1ccc(Cc2nnnn2CC(=O)O)cc1
(54) Cc1nc(NC(=O)C2CC2)sc1C
(55) COc1ccc(C2C=C(c3ccccc3)Nc3nc(NC(=O)c4cccc([N+](=O)[O-])c4)nn32)cc1 (stereo not drawn)
(56) CC(C)COC(=O)c1ccccc1OC(=O)c1ccncc1
(57) Cc1ccc(C2=NN(C(=O)CN3CCN(C4CCS(=O)(=O)C4)CC3)C(c3ccco3)C2)cc1 (stereo not drawn)
(58) Cc1ccc(C(=O)CCC(=O)N2CCN(c3ccc(F)cc3)CC2)cc1
(59) COc1ccc(Cl)cc1NC(=O)CCS(=O)(=O)c1nc(-c2cccs2)cc(C(F)(F)F)n1
(60) CSc1ccc(CN(C)C(C)C(=O)NCc2ccccc2)cc1 (stereo not drawn)
Compound | 51 | 52 | 53 | 54 | 55 | 56 | 57 | 58 | 59 | 60
Vaccinia mCherry | -11.7% | 8.6% | · | i | 0.4% | i | -7.1% | -6.4% | -22.2% | ?
VACV Venus inh | -5.2% | 7.6% | ? | -19.0% | -6.3% | 7.5% | -19.5% | 2.0% | -19.3% | 3.3%

(61) COc1ccc(-c2n[nH]c(=S)n2-c2ccccc2C)cc1
(62) O=C(c1cc(F)c(F)cc1Cl)N1CCOCC1
(63) CC(=O)c1ccc(S(=O)(=O)N2CCn3cccc3C2c2ccc(C)cc2)cc1 (stereo not drawn)
(64) COc1ccc(OC2C(=O)N(c3ccc(C)c(C)c3)C2c2ccc(OC)c(OC)c2)cc1 (stereo not drawn)
(65) CNC(=O)NC(=O)CSc1cccc(C(F)(F)F)c1
(66) CCOC(=O)[C@H]1[C@H]2COc3ccc(OC)cc3[C@@H]2N2C(=O)c3ccccc3NC(=O)[C@@]12C
(67) Cc1ccc(Cl)cc1N1CCN(CCCNC(=O)c2ccc3nc(N4CCCCC4)sc3c2)CC1
(68) O=C1c2ccccc2C(=O)C1c1ccccc1F
(69) O=C(Oc1ccc(Br)cc1)c1cccc(S(=O)(=O)N2CCOCC2)c1
(70) O=Cc1cc(Br)c(OC(=O)N2CCOCC2)c(Br)c1
Compound | 61 | 62 | 63 | 64 | 65 | 66 | 67 | 68 | 69 | 70
Vaccinia mCherry | -6.7% | -15.0% | -8.9% | i | -18.5% | i | ? | i | -22.3% | -11.6%
VACV Venus inh | 2.2% | -10.1% | -3.7% | -5.2% | -8.2% | -18.4% | -30.0% | -15.3% | -11.1% | -9.4%

# Values by screen from the entries so far:
# Entries 61–70 in VACV Venus inh: 2.2%, -10.1%, -3.7%, -5.2%, -8.2%, -18.4%, -30.0%, -15.3%, -11.1%, -9.4%
# Entries 61–70 in Vaccinia mCherry: -6.7%, -15.0%, -8.9%, i, -18.5%, i, ?, i, -22.3%, -11.6%

# The results go on.
(71) c1ccc(N2N=C(c3cccs3)CC2c2ccco2)cc1 (stereo not drawn)
(72) Cc1ccc(C)c(NC(=O)c2cc(S(=O)(=O)N3CCc4ccccc4C3)ccc2F)c1
(73) COc1ccc(C(=O)c2c(C(F)(F)F)oc3c2C(=O)c2ccccc2C3=O)cc1OC
(74) CCOC(=O)N1C2C=CC(C2)N1C(=O)OCC
(75) Cn1c(=O)c2c(ncn2CC(=O)N2CCN(c3ccccc3F)CC2)n(C)c1=O
(76) Cc1cnc(-c2nc3ccccc3n2C(C(=O)Nc2c(C)cccc2C)C2CC2)cn1 (stereo not drawn)
(77) CC1(C)C(=O)C=C(N2CCCCC2)c2ccccc21
(78) CN1C(=O)C(C)(C)c2cc(S(=O)(=O)N3CCCC3C(=O)NCc3ccc(F)cc3)ccc21 (stereo not drawn)
(79) Cc1cccc(NC(=O)CSc2cn[nH]n2)c1
(80) Cc1ccc2nc3c(c(Nc4ccccc4)c2c1)CCC3
Compound | 71 | 72 | 73 | 74 | 75 | 76 | 77 | 78 | 79 | 80
Vaccinia mCherry | · | -16.8% | · | -13.6% | -6.5% | 5.2% | ? | i | -20.3% | -28.4%
VACV Venus inh | -15.4% | -11.9% | 5.62µM* | -5.0% | -21.9% | -7.6% | -10.3% | -4.8% | 4.7% | -18.9%

(81) O=C(CCC1CCCC1)NCc1ccccn1
(82) O=C(OCC(=O)N1CCCc2ccccc21)c1ccc(C(F)(F)F)cc1
(83) CCOC(=O)c1ccc(N/C(=N/S(=O)(=O)c2ccccc2)c2ccccc2)cc1
(84) Cc1cc(NC(=O)CCn2c(=O)c3cccn3c3cccnc32)ccc1Br
(85) CCOc1ccc2nc(SCC(=O)Nc3cc4c(cc3C(C)=O)OCO4)[nH]c2c1
(86) N/C(=N\OC(=O)Cc1ccccc1[N+](=O)[O-])c1ccc(Br)cc1
(87) COC(=O)c1cc(C(=O)N2CCN(c3cccc(C)c3C)CC2)cc([N+](=O)[O-])c1
(88) Cc1ccc(CN2CC(C(=O)N3CC=C(c4ccccc4)CC3)CC2=O)cc1 (stereo not drawn)
(89) O=C(CCC(=O)N1CCCc2ccccc21)N1CCN(S(=O)(=O)c2ccccc2)CC1
(90) COc1ccc(NC(=O)N2CCc3cc(OC)c(OC)cc3C2)cc1
Compound | 81 | 82 | 83 | 84 | 85 | 86 | 87 | 88 | 89 | 90
Vaccinia mCherry | -11.4% | -14.4% | i | -9.3% | · | -12.9% | ? | ? | · | -22.6%
VACV Venus inh | -15.9% | -7.4% | -9.0% | -8.7% | -5.4% | -3.6% | -24.2% | -15.5% | -13.7% | ?

# 5 compounds picked at random from the list so far, as already listed:
(84) Cc1cc(NC(=O)CCn2c(=O)c3cccn3c3cccnc32)ccc1Br
(82) O=C(OCC(=O)N1CCCc2ccccc21)c1ccc(C(F)(F)F)cc1
(87) COC(=O)c1cc(C(=O)N2CCN(c3cccc(C)c3C)CC2)cc([N+](=O)[O-])c1
(81) O=C(CCC1CCCC1)NCc1ccccn1
(90) COc1ccc(NC(=O)N2CCc3cc(OC)c(OC)cc3C2)cc1
Compound | 84 | 82 | 87 | 81 | 90
Vaccinia mCherry | -9.3% | -14.4% | ? | -11.4% | -22.6%
VACV Venus inh | -8.7% | -7.4% | -24.2% | -15.9% | ?
